NS1 function inh – inhibitors of influenza NS1 protein function. S. cerevisiae slowed by influenza A NS1, growth recovery by OD600. Potency, µM (doses to about 46.1 µM), without a hit: top-dose activity, positive = more growth. hit rate 0.4% among 270,000. AID 2326; active means well fitted rising curve with a large enough effect; inconclusive means small, poorly fitted or top-dose-only effect; inactive means no such curve, though single readings can be large or run the other way; note: nearly all actives have a fitted effect of over 50% in size
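Recovery from NS1-induced slow growth read by OD600 in budding yeast switched to galactose assay medium (pH 6.0, -URA) at 1:100 dilution. Compound 23 nl per well; the matching strain lacking NS1 serves as control.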
SARS PLpro yeast – SARS-CoV PLP inhibition in yeast. S. cerevisiae expressing SARS-CoV PLpro, growth rescue; control for the full effect not named in the record. Potency, µM (titrated, usually from 32.9 µM), without a hit: at the highest dose activity, positive = growth rescue. hit rate 0.19% among 330,000. AID 485353; active means well fitted rising curve with a large enough effect; inconclusive means small, poorly fitted or top-dose-only effect; inactive means no such curve, though single readings can be large or run the other way; note: 0% is about no effect; nearly all actives have a fitted effect of over 55% in size; growth read by luminescence after 48 h
RE007 growth inh – less growth of the S. pombe RE007 Vpr strain. S. pombe RE007 Vpr strain, BacTiter-Glo ATP luminescence, 24 h; control for the full effect not named in the record. Potency, µM (titrated, usually from 92.2 µM), for the others: top-dose activity change, negative = less growth. hit rate 0.21% among 360,000; active = well fitted falling curve with a large enough effect; inconclusive = small, poorly fitted or top-dose-only effect; inactive = no such curve, though single readings can be large or run the other way;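 note: % is set by controls: 0 for no effect and ±100 for the full control effect; nearly all actives have a fitted effect of over 50% in size; the assay follows cell death caused by Vpr and the record does not say whether a fall means rescue or toxicity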
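Fission yeast strain RE007, carrying one chromosomally integrated HIV-1 vpr copy, was seeded at OD 0.01 in PMG+AL medium with 23 nL pinned compound. After 24 h at 30 °C and 99% humidity, viability was read by BacTiter-Glo luminescence.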
2A StopGo – FMDV 2A StopGo reporter, luciferase signal | hit rate 1.2% among 410,000 | Potency, µM (highest dose often 57.9 µM), inactives show at the highest dose signal change, negative = less light | AID 1159524 | human cells with a luciferase reporter of 2A StopGo recoding; control for the full effect not named in the record; active = well fitted falling curve with a large enough effect; inconclusive = small, poorly fitted or top-dose-only effect; inactive = no such curve, though single readings can be large or run the other way; tested in HEK293T cells; note: % is set by controls: 0 for no effect and ±100 for the full control effect; nearly all actives have a fitted effect of over 45% in size; luciferase light after 4 h
Cruzain noTriton – blocks cruzain activity in detergent-free assay. P25779. purified cruzain, Z-FR-AMC fluorescence, no detergent. Potency, µM, for the others: max response, negative = inhibition, usual class: inhibitors. hit rate 2.3% among 200,000. AID 1476;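 note: plate controls were enzyme without inhibitor for no effect and buffer without enzyme for full effect; nearly all actives have a fitted effect of over 40% in size; top concentration of the series not given in the record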
Target sequence (P25779 123-467 limits assumed): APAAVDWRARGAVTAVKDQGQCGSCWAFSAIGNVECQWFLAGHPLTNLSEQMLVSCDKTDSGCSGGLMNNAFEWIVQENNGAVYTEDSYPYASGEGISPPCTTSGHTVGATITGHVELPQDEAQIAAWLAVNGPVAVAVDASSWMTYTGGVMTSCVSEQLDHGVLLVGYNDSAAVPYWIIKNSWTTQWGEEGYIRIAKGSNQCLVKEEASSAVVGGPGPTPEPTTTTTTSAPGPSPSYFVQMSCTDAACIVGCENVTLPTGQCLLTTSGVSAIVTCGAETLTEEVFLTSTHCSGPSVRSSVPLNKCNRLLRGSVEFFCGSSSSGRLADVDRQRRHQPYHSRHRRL
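Detergent-free condition (0.00005% Triton X-100) in acetate buffer pH 5.5 with DTT. 1.5 nM enzyme and compound were pre-mixed 15 min, then 2 uM Z-FR-AMC substrate added; reaction progress from fluorescence change between first and third reads (60 s).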
MARV entry inh – inhibitors of Marburg virus binding or cell entry. Marburg virus pseudotyped entry inhibition, cell reporter; control for the full effect not named in the record; about a third of the inactives were read at about 46 µM. Potency, µM (highest dose often 37.8 µM), for inactives: top-dose activity change, negative = inhibition, actives largely listed as inhibitors. hit rate 1.8% among 300,000; active = well fitted inhibition curve with a large enough effect; inconclusive = small, poorly fitted or top-dose-only effect, or effect the other way; inactive = flat fitted curve, though single readings scatter; tested in HEK293 cells; about a fifth of its hits are not listed in these tables; note: % is set by controls: 0 for no effect and ±100 for the full control effect; luciferase read-out
Cruzain inh Det – blocks cruzain activity in presence of Triton detergent; hit rate 0.43% among 200,000; AID 1478; purified cruzain, Z-FR-AMC fluorescence, 0.01% Triton; P25779; Potency, µM, without a hit: max response, negative = inhibition, usual class: inhibitors;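 note: plate controls were neutral wells for no effect and buffer without enzyme for full effect; nearly all actives have a fitted effect of over 40% in size; top concentration of the series not given in the record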
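In this qHTS format, compounds are incubated with 1.5 nM cruzain for 15 min at room temperature before 2 uM Z-FR-AMC is added. Release of AMC is followed at 360/450 nm, and progress is taken as the 60 s fluorescence difference.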
LASV entry inh – inhibitors of Lassa virus binding or cell entry. Lassa virus pseudotype entry inhibition, cell reporter; control for the full effect not named in the record. Potency, µM (doses to about 37.9 µM), for the others: at the highest dose activity change, negative = inhibition, hits mostly inhibitors. hit rate 1.2% among 300,000; active means well fitted inhibition curve with a large enough effect; inconclusive means small, poorly fitted or top-dose-only effect, or effect the other way; inactive means flat fitted curve, though single readings scatter; tested in HEK293 cells; note: % is set by controls: 0 for no effect and ±100 for the full control effect; nearly all actives have a fitted effect of over 50% in size; luciferase read-out
* marks the source's active call; other numbers are inactive results; ? = inconclusive; . = not tested or not shown; & = joins results of further samples; [ ] = another dose, or the depositor's remark. Unless noted, calls come from the whole dose curve; as a rule, active = well fitted curve in the direction sought with a large enough effect; inconclusive = small, poorly fitted or top-dose-only effect, or another doubt; inactive = no such curve, though single readings can be large; an effect the other way counts as inactive or inconclusive. Potency is the fitted concentration of half-maximal effect. Outcome played no part in choosing rows; any-hit rate near 4.6%.

entry	structure	NS1 function inh	SARS PLpro yeast	RE007 growth inh	2A StopGo	Cruzain noTriton	MARV entry inh	Cruzain inh Det	LASV entry inh
1	Cc1sc(C(=O)NCc2cccnc2)c2nc(C)n(CC(=O)NCc3cccnc3)c(=O)c12	0%	-4%	-11%	1%	4%	?	1.3%	41%[14.3 µM]
2	COc1ccc(-c2c(C#N)c(N)nc3c2c(=O)n(C)c(=O)n3C)cc1	12%	8%	-20%	0%	0%	3%	-3.7%	13%
3	Cc1cc(C(=O)N/N=C/c2ccc(-c3ccccc3Cl)o2)n[nH]1	-2%	6%	.	-18%	-29%	3%	?	-12%
4	COC(=O)CCCCCc1ccc(C(C)=O)s1	-7%	-6%	-6%	-2%	3%	2%[46.1 µM]	-6.4%	2%
5	CN(C)c1ccc(C(=O)NCc2ccc3c(c2)CCN3C(=O)c2ccccc2)cc1	.	.	.	-12%	7%	.	-4.1%	2%[46.1 µM]
6	COc1ccc(-c2cn[nH]c2N)c(OC)c1	8.9µM*	-7%	1%	-4%	-15%	-1%	-1.6%	6%
7	O=S(=O)(c1ccc(Br)cc1)N1CCN(c2ccccc2)CC1	1%	-3%	19%	-8%	.	16%[46.1 µM]	.	-3%[46.1 µM]
8	CCN(C(=O)CN1CC(C)OC(C)C1)c1c(N)n(Cc2ccccc2)c(=O)[nH]c1=O (stereo not drawn)	.	1%	5%	-15%	.	1%[14.2 µM]	.	4%
9	CCOC(=O)c1[nH]c(C)c(/C(O)=C2\C(=O)C(=O)N(CCN(C)C)C2c2ccc(C)o2)c1C (stereo not drawn)	-13%	17%	-20%	-9%	5%	-12%	0.5%	-16%
10	CC(C)C[C@H](NC(=O)NCc1ccccc1Cl)C(=O)O	7%	-2%	5%	-3%	5%	5%	2.8%	-2%
11	Cc1cccc(N(CC(=O)NCCSc2ccccn2)S(=O)(=O)c2ccccc2)c1	-18%	-3%	20%	-21%	-8%	?	0.0%	?
12	CCN(CC)CCNC(=O)c1ccc2c(c1)NC(=O)C(CS(=O)(=O)Cc1cccc(Br)c1)N2 (stereo not drawn)	.	.	.	-2%	-7%	.	-6.5%	0%[46.1 µM]
13	O=C(c1cc(-c2cccc(Cl)c2)on1)N1CCN(c2ccc(F)cc2)CC1	5%	0%	-15%	56%[activator]	.	-24%[46.1 µM]	.	-24%[46.1 µM]
14	COc1cccc(C(=O)c2c(C)c(CCC#N)n3ccccc23)c1OC	5%	7%	0%	16%	.	?	.	-51%
15	Cc1noc(C)c1CCC(=O)NC1CCCN(Cc2ccc(CC(C)C)cc2)C1 (stereo not drawn)	6%	2%	-11%	-28%	.	.	.	.
16	CSCCC(NS(=O)(=O)c1ccc2c(c1)OCCO2)C(=O)N(C)Cc1ccc(F)cc1 (stereo not drawn)	.	-2%	-28%	-13%	.	-9%	.	-19%
17	CC(=O)Nc1ccc(/C(N=Nc2ccccc2)=N/N=C(N)N)cc1	.	.	5%	29%	.	?	.	-9%[46.1 µM]
18	CN(CC(=O)Nc1ccc(Cl)c(C(F)(F)F)c1)C(=O)/C=C/c1ccco1	3%	-19%	-4%	-13%	17%	?	-15%	-1%
19	COc1cc(NC(=O)CSc2ccc(-c3cccnc3)nn2)cc(OC)c1	5%	-7%	-12%	-27%	.	-7%	.	3%
20	COc1cccc(OC)c1C(=O)NC(=S)Nc1ccc2oc(-c3ccncc3)nc2c1	.	-1%	3%	-20%	.	?	.	?
21	O=C1/C(=C/c2cccs2)NC(=S)N1C1CC1	-11%	0%	?	8%	-8%	4%	-7.7%	3%
22	CCN1CCN(c2cc(C)c3cc(NC(=O)c4cc(OC)c(OC)c(OC)c4)ccc3n2)CC1	.	.	.	-3%	-1%	.	-5.7%	-24%[46.1 µM]
23	CCCn1nc(NC(=O)C2CCCO2)c2cc3cc(C)ccc3nc21 (stereo not drawn)	-13%	-17%	0%	29%	8%	2%	-4.9%	9%
24	COc1cc(OC)c(OC)cc1/C=C1/C(=O)NC(=O)N(Cc2ccccc2)C1=O	5%	1%	0%	?	.	?	.	-22%[46.1 µM]
25	Cc1ccc(-c2nc3c4ccccc4n(CC(=O)N4CCN(c5ccc(F)cc5)CC4)c(=O)n3n2)cc1	.	.	.	-3%	4%	.	0.5%	0%[46.1 µM]
26	CC(=O)c1c(C)[nH]c(C(=O)NC2CCSc3ccccc32)c1C (stereo not drawn)	-2%	-4%	-7%	-21%	.	?	.	?
27	CCN1CCCC1CNC(=O)c1cc(N)ccc1OC (stereo not drawn)	.	.	12%	-4%	.	15%[46.1 µM]	.	16%[46.1 µM]
28	CSCC[C@H](NC(=O)NCc1ccccc1F)C(=O)O	-9%	4%	6%	0%	7%	8%	0.0%	10%
29	COc1ccccc1CNC(=O)C(Cc1c[nH]c2ccccc12)NC(=O)OCc1ccccc1 (stereo not drawn)	15%	7%	8%	-25%	18%	?	-9.0%	4.5µM*
30	O=C(COc1ccc(Br)cc1Cl)NC(=O)NCc1ccccc1	4%	-13%	-6%	-8%	-2%	2%	-2.1%	?
31	COc1cc(NC(=S)NCCO)c(OC)cc1Cl	3%	2%	22%	-8%	.	8%[46.1 µM]	.	11%
32	CC(=O)NC(CC(=O)Nc1cc(Cl)ccc1-n1cncn1)c1ccccc1 (stereo not drawn)	.	-2%	1%	-8%	.	-3%[46.1 µM]	.	17%
33	CC(C(=O)Nc1ccc2c(c1)OCCO2)N(C)Cc1c(F)cccc1Cl (stereo not drawn)	.	-7%	-17%	-11%	.	?	.	?
34	O=C1CN(C(=O)c2ccc(S(=O)(=O)N3CCCC3)cc2)C(c2ccccc2)c2cc(Cl)ccc2N1 (stereo not drawn)	.	.	.	0%	5%	1%[46.1 µM]	-4.7%	?
35	Fc1ccc(CSc2ncnc3nc[nH]c23)cc1	-15%	-12%	1%	-20%	3%	.	-2.1%	.
36	CCOc1ccc(OCc2ccc(C(=O)N3CCc4ccccc4C3)o2)cc1	-56%	-11%	1%	.	6%	4%	-5.4%	?
37	CN(C)C(=O)Oc1ccc2c(c1)O/C(=C\c1ccccc1)C2=O	-9%	-3%	-8%	63%[activator]	.	.	.	.
38	O=C1c2ccccc2C2=Nc3ccccc3SC(c3ccc(Cl)cc3)C12 (stereo not drawn)	-10%	-67%	-1%	2%	?	?	-4.3%	?
39	Cc1ccc(NC(=O)c2oc3ccc(S(=O)(=O)N4CCCCC4)cc3c2C)cc1Cl	.	.	.	?	7%	.	0.3%	-6%[46.1 µM]
40	O=C(CN1C(=O)C(=O)N(C2CCCC2)C1=O)Nc1ccc([N+](=O)[O-])cc1	.	-3%	?	-18%	.	-19%	.	-27%
41	Cc1ccc(NS(=O)(=O)c2cccc3cccnc23)c(Cl)c1	-3%	-1%	15%	14%	.	.	.	.
42	COc1ccc(N(CC(=O)N/N=C(\C)c2ccccc2)S(=O)(=O)c2ccccc2)cc1	3%	2%	8%	-19%	.	.	.	.
43	C/C(=C/c1oc2ccc(O)cc2c1[N+](=O)[O-])N(C)C	7%	12%	-10%	14%	8%	9%	4.4%	-5%
44	Cc1ccccc1CNC(=O)Cn1c(=O)c2cccn2c2cccnc21	.	.	.	2%	19%	.	-6.5%	2%[46.1 µM]
45	Cc1c(Cl)cccc1NC(=S)NCC(c1cccnc1)N(C)C (stereo not drawn)	.	-1%	1%	-19%	.	4%[46.1 µM]	.	-12%
46	Cc1cc2occ(CC(=O)OCC(=O)Nc3sc4c(c3C#N)CCC(C)C4)c2cc1C (stereo not drawn)	-2%	-33%	-23%	18%	?	1%	-6.9%	1%
47	Cc1ccc(NC(=O)CSc2ccc(-c3ccco3)nn2)c(C)c1	.	0%	-7%	-12%	.	0%[46.1 µM]	.	8%[46.1 µM]
48	O=C(NCc1c(Cl)cccc1Cl)c1ccc2nnsc2c1	-3%	0%	2%	-5%	.	0%[46.1 µM]	.	24%
49	CC(=O)c1cccc(NC(=O)NN2CCN(C)CC2)c1	5%	-2%	5%	5%	.	.	.	.
50	COc1cc(S(=O)(=O)N(Cc2ccc(C)cc2)C2CCCCC2)ccc1-n1cnnn1	2%	-42%	3%	5%	8%	?	1.2%	?
51	CCCCN(C)S(=O)(=O)c1ccc(C(=O)Nc2nnc(-c3ccco3)o2)cc1	.	8%	1%	-22%	.	?	.	-24%[46.1 µM]
52	COc1cc(-c2cc(C(=O)N3CCCCCC3)c3ccccc3n2)cc(OC)c1OC	.	-2%	-15%	-23%	.	-30%	.	?
53	Cc1cccc(Nc2nnc(-c3ccc(C)c(S(=O)(=O)N4CCCCC4)c3)c3ccccc23)c1	.	.	.	-28%	-1%	.	-0.7%	14%[46.1 µM]
54	CC(C)(C)NS(=O)(=O)c1cnc(Cl)c(Cl)c1	-19%	-6%	-8%	-8%	-8%	8%	11%	1%
55	CCOC(=O)C1=C(N)Oc2cc(C)oc(=O)c2C1c1cccnc1 (stereo not drawn)	-1%	11%	0%	-6%	-7%	2%	1.1%	3%
56	CC(C)c1cc(NCCCN2CCOCC2)n2c(nc3ccccc32)c1C#N	7%	0%	4%[3.69 µM]	1%	-6%	-1%&-1%	-7.6%	5%
57	CC(C)(C)CC(=O)NCCCCCCNC(=O)CC(C)(C)C	-4%	0%	3%	-15%	21%	?	1.7%	6%
58	CCOc1ccc(CCNC(=O)CN2CCN(Cc3ccccc3C)C2=O)cc1OCC	-1%	1%	2%	?	?	1%	6.9%	-12%

Compound activity deposited in PubChem by National Center for Advancing Translational Sciences (NCATS).
